Env fusion inh – inhibitors of HIV-1 Env-driven cell-cell fusion, primary screen, HeLa-JRFL effector, CEM21 target cells, luciferase | actives 1.1% (n = 360,000) | inhibition, % at 12.3 µM | AID 651610, 2012;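 active means mean replicate inhibition score of at least 50 and every replicate individually at or above 50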;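 further: 0% = plate neutral controls and 100% = maraviroc near 300 nM; one replicate is shown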
UUG fidelity – modulators of yeast start codon fidelity, primary screen, whole organism, S. cerevisiae, single point, plate reader; actives 0.13% (n = 350,000); activity score, % at 18.7 µM; S. cerevisiae UUG-firefly luciferase reporter, luminescence/redox ratio;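 active means replicate mean at a twofold rise or more, about +100% in these data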;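 further: firefly luciferase made from a UUG start codon reports start codon fidelity; reporter light over untreated wells divided by growth signal over untreated wells; some hits fall short of that in this replicate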
Numbers without * were called inactive; [ ] = remark or other dose.

cpd	Env fusion inh	UUG fidelity	Structure
1	4[16.7 µM]	-10	CCC(=O)Nc1ccc2c(c1)C(=O)N(C)C[C@H](OC)[C@H](C)CN(Cc1ccccc1)[C@@H](C)CO2
2	22[16.7 µM]	2	Cc1noc(C)c1S(=O)(=O)Nc1ccc2c(c1)C(=O)N([C@H](C)CO)C[C@@H](C)[C@H](CN(C)Cc1ccc3c(c1)OCO3)OCCCC[C@H](C)O2
3	1[16.7 µM]	6	C/C=C/c1ccc([C@H]2[C@@H](C#N)N(C(=O)NC3CCCC3)[C@@H]2CO)cc1
4	-5[16.7 µM]	26	CO[C@H]1CN(C)C(=O)c2ccc(NC(C)=O)cc2OC[C@@H](C)N(C(=O)c2ccc(F)cc2)C[C@H]1C
5	10[16.7 µM]	-23	O=C(N[C@H]1CC[C@H](CCNC(=O)C2CCC2)O[C@@H]1CO)c1ccncc1
6	-29[16.7 µM]	10	Cc1ccc(S(=O)(=O)N(C)C[C@H]2Oc3c(NS(=O)(=O)c4cccs4)cccc3C(=O)N([C@@H](C)CO)C[C@@H]2C)cc1
7	3[16.7 µM]	6	C[C@H](CO)N1C[C@H](C)[C@@H](CN(C)C(=O)Nc2ccc(C(F)(F)F)cc2)Oc2ccc(NS(C)(=O)=O)cc2CC1=O
8	11[16.7 µM]	1	C[C@H](CO)N1C[C@H](C)[C@H](CN(C)Cc2ccc3c(c2)OCO3)Oc2ccc(NS(=O)(=O)c3ccc(Cl)cc3)cc2CC1=O
9	25[16.7 µM]	-8	O=S(=O)(N[C@H]1CC[C@H](CCn2cc(C3(O)CCCC3)nn2)O[C@H]1CO)c1ccccc1
10	-12[16.7 µM]	-25	O=C(N[C@H]1CC[C@H](CCn2cc(-c3ccccn3)nn2)O[C@@H]1CO)c1ccc(F)cc1
11	5[16.7 µM]	-12	Cc1ccccc1S(=O)(=O)NCC[C@@H]1CC[C@H](NC(=O)C2CCC2)[C@H](CO)O1
12	4[16.7 µM]	-15	C[C@@H]1CCCCO[C@H](CN(C)C(=O)Nc2cccc3ccccc23)[C@@H](C)CN([C@H](C)CO)C(=O)c2cc(NC(=O)NC3CCCCC3)ccc2O1
13	0[16.7 µM]	-24	O=C(C[C@H]1C[C@H]2c3cc(NC(=O)c4cccnc4)ccc3O[C@H]2[C@H](CO)O1)NCc1ccccn1
14	6[16.7 µM]	12	C[C@@H]1CN([C@H](C)CO)C(=O)c2cc(N(C)C)ccc2O[C@@H](C)CCCCO[C@@H]1CN(C)S(=O)(=O)c1ccc(F)cc1
15	-16[16.7 µM]	-5	CCCNC(=O)C[C@@H]1C[C@H]2c3cc(NS(=O)(=O)c4ccccc4)ccc3O[C@H]2[C@@H](CO)O1
16	2[16.7 µM]	-12	C[C@H]1CCCCO[C@H](CN(C)S(=O)(=O)c2cccs2)[C@@H](C)CN([C@@H](C)CO)C(=O)c2cc(NC(=O)Nc3ccccc3)ccc2O1
17	-68[16.7 µM]	2	CCCc1cn(CC[C@@H]2CC[C@@H](NS(=O)(=O)c3ccccc3Cl)[C@H](CO)O2)nn1
18	-22[16.7 µM]	8	CCCNC(=O)N(C)C[C@@H]1Oc2ncc(C#CC3(O)CCCC3)cc2C(=O)N([C@@H](C)CO)C[C@H]1C
19	5[16.7 µM]	4	O=C(N[C@@H]1CC[C@H](CCNC(=O)C2CC2)O[C@H]1CO)c1ccncc1
20	7[16.7 µM]	-13	CCC(=O)Nc1ccc2c(c1)C(=O)N(C)C[C@@H](OC)[C@@H](C)CN(C(=O)c1cccnc1)[C@H](C)CO2
21	-2[16.7 µM]	15	C[C@H]1CN([C@@H](C)CO)C(=O)c2cc(-c3ccncc3)cnc2O[C@H]1CN(C)C(=O)c1cccc(F)c1
22	-23[16.7 µM]	37	CN(C)C(=O)C[C@@H]1C[C@H]2c3cc(NC(=O)C4CCC4)ccc3O[C@H]2[C@H](CO)O1
23	35[16.7 µM]	5	C[C@@H]1CN([C@H](C)CO)C(=O)Cc2cc(NC(=O)CCCCCC(=O)Nc3ccccc3N)ccc2O[C@H]1CN(C)Cc1ccccc1
24	5[16.7 µM]	21	CCCNC(=O)N(C)C[C@H]1Oc2ncc(C#C[C@@H](C)O)cc2C(=O)N([C@@H](C)CO)C[C@@H]1C
25	-2[16.7 µM]	-5	CN1C(=O)c2cc(NC(=O)C3CC3)ccc2OC[C@H]2O[C@@H](CC(=O)NCCc3ccncc3)CC[C@H]21
26	1[16.7 µM]	-3	O=C(C[C@@H]1CC[C@@H](NS(=O)(=O)c2ccc(F)cc2)[C@H](CO)O1)NC1CCC1
27	1[16.7 µM]	25	CCCNC(=O)C[C@H]1CC[C@@H]2[C@@H](COc3ccc(NC(=O)c4cccc(OC)c4)cc3C(=O)N2C)O1
28	16[16.7 µM]	7	C[C@H]1CN([C@@H](C)CO)C(=O)c2cc(C#CCN(C)C)cnc2O[C@H]1CN(C)Cc1cccc(C(=O)O)c1
29	0[16.7 µM]	-11	C[C@H](NC(=O)C[C@@H]1C=C[C@H](NC(=O)c2cccnc2)[C@H](CO)O1)c1ccccc1
30	15[16.7 µM]	5	CCCC#Cc1cnc2c(c1)C(=O)N([C@H](C)CO)C[C@@H](C)[C@@H](CN(C)C(=O)c1ccc(F)cc1)O2
31	1[16.7 µM]	-12	C[C@H](NC(=O)C[C@H]1CC[C@@H]2[C@H](COC[C@@H](O)CN2C)O1)c1ccccc1
32	-16[16.7 µM]	-3	C[C@H]1CCCCO[C@H](CN(C)Cc2ccncc2)[C@@H](C)CN([C@@H](C)CO)C(=O)c2cc(NC(=O)CCC(F)(F)F)ccc2O1
33	3[16.7 µM]	-10	Cc1ccc(S(=O)(=O)Nc2ccc3c(c2)C(=O)N([C@@H](C)CO)C[C@@H](C)[C@H](CN(C)S(=O)(=O)c2ccc(Cl)cc2)OCCCC[C@@H](C)O3)cc1
34	24[16.7 µM]	8	Cc1ccc(-c2ccc3c(c2)O[C@@H](CN(C)Cc2cccnc2)[C@H](C)CN([C@@H](C)CO)S3(=O)=O)cc1
35	-4[16.7 µM]	-12	O=C(C[C@@H]1CC[C@H](NS(=O)(=O)c2ccc(F)cc2)[C@@H](CO)O1)N1CCc2ccccc2C1
36	-2[16.7 µM]	0	C[C@@H]1CN([C@@H](C)CO)C(=O)c2cc(NC(=O)Nc3ccc4c(c3)OCO4)ccc2O[C@@H](C)CCCCO[C@@H]1CN(C)S(=O)(=O)c1ccc(Cl)cc1
37	-14[16.7 µM]	10	C[C@H]1CN([C@@H](C)CO)C(=O)c2cc(NC(=O)Nc3ccc(F)cc3)ccc2O[C@@H]1CN(C)C(=O)Nc1ccccc1
38	-2[16.7 µM]	-6	CCCC(=O)Nc1ccc2c(c1)C(=O)N(C)[C@H]1CC[C@@H](CC(=O)O)O[C@H]1CO2
39	8[16.7 µM]	0	Cc1ccc(S(=O)(=O)Nc2ccc3c(c2)CC(=O)N([C@@H](C)CO)C[C@H](C)[C@@H](CN(C)C(=O)Nc2cccc4ccccc24)O3)cc1
40	0[16.7 µM]	-18	CO[C@@H]1CN(C)C(=O)c2cc(NS(=O)(=O)CC(F)(F)F)ccc2OC[C@H](C)NC[C@H]1C
41	-56[16.7 µM]	12	COc1ccc(NC(=O)N(C)C[C@@H]2OCCCC[C@H](C)Oc3ccc(NC(=O)Cc4ccccc4)cc3C(=O)N([C@H](C)CO)C[C@H]2C)cc1
42	3[16.7 µM]	11	COCC#Cc1ccc2c(c1)O[C@H](CN(C)S(=O)(=O)c1cccc(OC)c1)[C@H](C)CN([C@@H](C)CO)S2(=O)=O
43	-7[16.7 µM]	-10	O=C(C[C@@H]1C=C[C@@H](NC(=O)Nc2ccccc2)[C@H](CO)O1)NCc1ccccn1
44	13[16.7 µM]	-1	C[C@H]1CN([C@@H](C)CO)S(=O)(=O)c2ccc(C#Cc3ccccc3)cc2O[C@H]1CN(C)S(=O)(=O)c1cn(C)cn1
45	24[16.7 µM]	-1	COc1ccc(NC(=O)Nc2ccc3c(c2)CC(=O)N([C@@H](C)CO)C[C@H](C)[C@H](CN(C)S(=O)(=O)c2ccc(OC)cc2)O3)cc1
46	-3[16.7 µM]	-2	C[C@H](CO)N1C[C@H](C)[C@H](CN(C)Cc2cncnc2)Oc2ncc(-c3ccc(C#N)cc3)cc2C1=O
47	-16[16.7 µM]	15	CC(C)CC#Cc1cnc2c(c1)C(=O)N([C@H](C)CO)C[C@@H](C)[C@H](CN(C)C(=O)C1CCOCC1)O2
48	3[16.7 µM]	-2	COc1ccc(S(=O)(=O)N(C)C[C@H]2OCCCC[C@@H](C)Oc3ccc(NS(=O)(=O)c4ccc(F)cc4)cc3C(=O)N([C@H](C)CO)C[C@@H]2C)cc1
49	10[16.7 µM]	-4	COc1ccc(NC(=O)Nc2ccc3c(c2)C(=O)N([C@@H](C)CO)C[C@@H](C)[C@H](CN(C)S(=O)(=O)c2ccccc2)O3)cc1
50	-6[16.7 µM]	69*	CO[C@@H]1CN(C)C(=O)c2ccc(NC(=O)Nc3c(C)noc3C)cc2OC[C@H](C)N(C)C[C@@H]1C

Additional entries follow:
cpd	Env fusion inh	UUG fidelity	Structure
51	-21[16.7 µM]	-7	C[C@]12CCCC(=O)N1CCc1c2[nH]c2ccccc12
52	-40[16.7 µM]	3	C[C@@H]1CN([C@@H](C)CO)C(=O)c2cc(NS(=O)(=O)c3ccc(F)cc3)ccc2O[C@@H](C)CCCCO[C@H]1CN(C)C(=O)Cc1ccccc1
53	17[16.7 µM]	-4	C[C@@H]1CCCCO[C@H](CN(C)C(=O)Nc2ccc3c(c2)OCO3)[C@@H](C)CN([C@H](C)CO)C(=O)c2cc(NC(=O)CCC(F)(F)F)ccc2O1
54	-5[16.7 µM]	-17	C[C@@H]1CN([C@@H](C)CO)C(=O)c2cc(NS(=O)(=O)c3cn(C)cn3)ccc2O[C@@H](C)CCCCO[C@@H]1CN(C)CC1CCCCC1
55	-24[16.7 µM]	20	Cc1ccccc1S(=O)(=O)N[C@H]1CC[C@@H](CCNS(=O)(=O)c2cccc(F)c2)O[C@@H]1CO
56	9[16.7 µM]	-9	COc1cccc(-c2cnc3c(c2)C(=O)N([C@@H](C)CO)C[C@H](C)[C@@H](CN(C)C(C)=O)O3)c1

A different layout for some results above.
52: C[C@@H]1CN([C@@H](C)CO)C(=O)c2cc(NS(=O)(=O)c3ccc(F)cc3)ccc2O[C@@H](C)CCCCO[C@H]1CN(C)C(=O)Cc1ccccc1
  Env fusion inh: -40[16.7 µM]
  UUG fidelity: 3

53: C[C@@H]1CCCCO[C@H](CN(C)C(=O)Nc2ccc3c(c2)OCO3)[C@@H](C)CN([C@H](C)CO)C(=O)c2cc(NC(=O)CCC(F)(F)F)ccc2O1
  Env fusion inh: 17[16.7 µM]
  UUG fidelity: -4

Grouped by structure: the entries above with an aryl methoxy group
cpd	Env fusion inh	UUG fidelity	Structure
27	1[16.7 µM]	25	CCCNC(=O)C[C@H]1CC[C@@H]2[C@@H](COc3ccc(NC(=O)c4cccc(OC)c4)cc3C(=O)N2C)O1
41	-56[16.7 µM]	12	COc1ccc(NC(=O)N(C)C[C@@H]2OCCCC[C@H](C)Oc3ccc(NC(=O)Cc4ccccc4)cc3C(=O)N([C@H](C)CO)C[C@H]2C)cc1
42	3[16.7 µM]	11	COCC#Cc1ccc2c(c1)O[C@H](CN(C)S(=O)(=O)c1cccc(OC)c1)[C@H](C)CN([C@@H](C)CO)S2(=O)=O
45	24[16.7 µM]	-1	COc1ccc(NC(=O)Nc2ccc3c(c2)CC(=O)N([C@@H](C)CO)C[C@H](C)[C@H](CN(C)S(=O)(=O)c2ccc(OC)cc2)O3)cc1
48	3[16.7 µM]	-2	COc1ccc(S(=O)(=O)N(C)C[C@H]2OCCCC[C@@H](C)Oc3ccc(NS(=O)(=O)c4ccc(F)cc4)cc3C(=O)N([C@H](C)CO)C[C@@H]2C)cc1
49	10[16.7 µM]	-4	COc1ccc(NC(=O)Nc2ccc3c(c2)C(=O)N([C@@H](C)CO)C[C@@H](C)[C@H](CN(C)S(=O)(=O)c2ccccc2)O3)cc1
56	9[16.7 µM]	-9	COc1cccc(-c2cnc3c(c2)C(=O)N([C@@H](C)CO)C[C@H](C)[C@@H](CN(C)C(C)=O)O3)c1

Compound activity deposited in PubChem by Broad Institute.

Some of the compounds tested; rates above refer to the full screens.
